# Vaccinia stage: blocks a specific stage of Vaccinia orthopoxvirus infection, primary screen, cell-based, single point; Vaccinia-infected cells, mCherry/Venus stage reporter fluorescence; hits give low values; some inactives read as strong as hits; activity change (mCherry), % (test concentration not listed); 0.01% of 89,000 active;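 active = mCherry past -33% and 40 or more points under the early reporter, replicates agreeing; inconclusive = past -33% without that gap or agreement; tested in A549 cells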;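 note: scaled between vehicle wells and reference inhibitor wells; 23 nL library stock went into each well; one replicate is shown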
# Vaccinia stage Venus: further read-out of Vaccinia stage, marked with its call; activity change (Venus), %; measured here: Venus reporter, other viral stage;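 negative = less Venus signal; first of two replicates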
# An asterisk follows results filed as active; ? = inconclusive; / = no result given; & = joins results of further samples. An excerpt; the hit share may differ from the screen's.
cpd	SMILES	Vaccinia stage	Vaccinia stage Venus
1	CCCNC(=O)N(C)C[C@H]1Oc2cc(C3=CCCCC3)ccc2S(=O)(=O)N([C@H](C)CO)C[C@@H]1C	-15	-9
2	C[C@@H]1CN([C@@H](C)CO)C(=O)c2cc(NS(=O)(=O)c3ccccc3)ccc2O[C@H]1CN(C)C(=O)Nc1ccc(F)cc1	18	9
3	CCCNC(=O)N(C)C[C@H]1Oc2ncc(Br)cc2C(=O)N([C@@H](C)CO)C[C@H]1C	8	-8
4	CO[C@H]1CN(C)C(=O)c2ccc(NC(=O)C3CCC3)cc2OC[C@H](C)NC[C@H]1C	3	2
5	CNC[C@@H]1Oc2c(NC(=O)c3cc(C)nn3C)cccc2C(=O)N([C@@H](C)CO)C[C@H]1C	11	4
6	O=C(Nc1ccc(F)cc1)N1CCCCN2[C@H](CO)[C@@H](c3ccc(-c4ccccc4F)cc3)[C@@H]2C1	?	/
7	C[C@@H]1CN([C@@H](C)CO)C(=O)c2cc(NC(=O)Nc3ccc4c(c3)OCO4)ccc2O[C@@H]1CN(C)S(=O)(=O)c1ccc(F)cc1	-15	-14
8	Cc1ccc(-c2ccc3c(c2)O[C@@H](CN(C)Cc2ccc(C(=O)O)cc2)[C@@H](C)CN([C@H](C)CO)S3(=O)=O)cc1	1	-1
9	O=C(Cc1cccnc1)N1CC(=O)N2[C@H](CO)[C@H](c3ccc(C#CC4CCCC4)cc3)[C@@H]2C1	-13	-13
10	C[C@@H]1CN([C@H](C)CO)C(=O)Cc2cc(NC(=O)NC3CCCCC3)ccc2O[C@@H]1CN(C)Cc1ccc(Oc2ccccc2)cc1	?	/
11	O=C(C[C@@H]1C=C[C@@H](NC(=O)CN2CCOCC2)[C@@H](CO)O1)NCCc1ccccc1	4	-1
12	C[C@H]1CCCCO[C@H](CN(C)Cc2ccc(C(F)(F)F)cc2)[C@@H](C)CN([C@@H](C)CO)C(=O)c2cc(NS(=O)(=O)c3ccc(Cl)cc3)ccc2O1	?	/
13	Cc1ccccc1S(=O)(=O)N(C)C[C@@H]1OCc2cn(nn2)CCCC(=O)N([C@H](C)CO)C[C@H]1C	23&4	6&4
14	Cc1ccccc1-c1ccc2c(c1)O[C@H](CN(C)C(=O)c1ccccn1)[C@H](C)CN([C@H](C)CO)S2(=O)=O	-6	-4
15	C[C@@H]1CN([C@@H](C)CO)C(=O)c2cc(C#CC3CCCC3)cnc2O[C@@H]1CN(C)C(=O)Nc1ccccc1	?	/

# Ten entries out of the list, sorted by number of heavy atoms, ascending:
cpd	SMILES	Vaccinia stage	Vaccinia stage Venus
4	CO[C@H]1CN(C)C(=O)c2ccc(NC(=O)C3CCC3)cc2OC[C@H](C)NC[C@H]1C	3	2
5	CNC[C@@H]1Oc2c(NC(=O)c3cc(C)nn3C)cccc2C(=O)N([C@@H](C)CO)C[C@H]1C	11	4
9	O=C(Cc1cccnc1)N1CC(=O)N2[C@H](CO)[C@H](c3ccc(C#CC4CCCC4)cc3)[C@@H]2C1	-13	-13
1	CCCNC(=O)N(C)C[C@H]1Oc2cc(C3=CCCCC3)ccc2S(=O)(=O)N([C@H](C)CO)C[C@@H]1C	-15	-9
6	O=C(Nc1ccc(F)cc1)N1CCCCN2[C@H](CO)[C@@H](c3ccc(-c4ccccc4F)cc3)[C@@H]2C1	?	/
14	Cc1ccccc1-c1ccc2c(c1)O[C@H](CN(C)C(=O)c1ccccn1)[C@H](C)CN([C@H](C)CO)S2(=O)=O	-6	-4
8	Cc1ccc(-c2ccc3c(c2)O[C@@H](CN(C)Cc2ccc(C(=O)O)cc2)[C@@H](C)CN([C@H](C)CO)S3(=O)=O)cc1	1	-1
2	C[C@@H]1CN([C@@H](C)CO)C(=O)c2cc(NS(=O)(=O)c3ccccc3)ccc2O[C@H]1CN(C)C(=O)Nc1ccc(F)cc1	18	9
10	C[C@@H]1CN([C@H](C)CO)C(=O)Cc2cc(NC(=O)NC3CCCCC3)ccc2O[C@@H]1CN(C)Cc1ccc(Oc2ccccc2)cc1	?	/
12	C[C@H]1CCCCO[C@H](CN(C)Cc2ccc(C(F)(F)F)cc2)[C@@H](C)CN([C@@H](C)CO)C(=O)c2cc(NS(=O)(=O)c3ccc(Cl)cc3)ccc2O1	?	/

# Later entries.
cpd	SMILES	Vaccinia stage	Vaccinia stage Venus
16	COc1cccc(S(=O)(=O)Nc2ccc3c(c2)[C@H]2C[C@H](CC(=O)N[C@@H](C)c4ccccc4)O[C@@H](CO)[C@H]2O3)c1	?	/
17	Cc1ccc(S(=O)(=O)Nc2ccc3c(c2)CC(=O)N([C@H](C)CO)C[C@@H](C)[C@@H](CN(C)Cc2ccncc2)O3)cc1	27	8
18	O=C(NCC(F)(F)F)[C@H]1[C@H](CO)[C@H]2Cn3c(cccc3=O)[C@@H]1N2C(=O)C1CCC1	18	20
19	O=C(C1CCCCC1)N1CC[C@@H]2[C@H]1c1cc(C#Cc3ccc(F)cc3)ccc1N[C@@H]2CO	?	/
20	C[C@H]1CN([C@@H](C)CO)C(=O)Cc2cc(NC(=O)Nc3cccc4ccccc34)ccc2O[C@H]1CN(C)S(C)(=O)=O	13	4
21	COc1ccc(S(=O)(=O)N2C[C@@H](O)COC[C@H]3O[C@H](CC(=O)N[C@H]4CCN(Cc5ccccc5)C4)CC[C@@H]32)cc1	-11	2
22	O=C1O[C@@H](c2ccccc2)[C@@H](c2ccccc2)N2[C@@H](c3ccccc3OCCO)[C@]3(C(=O)Nc4ccc(C#CC5=CCCCC5)cc43)[C@@H](C(=O)N3CCN(c4ncccn4)CC3)[C@H]12	-18	-6
23	Cc1noc(C)c1NC(=O)N(C)C[C@@H]1Oc2c(NC(=O)C3CCOCC3)cccc2C(=O)N([C@@H](C)CO)C[C@@H]1C	3	0
24	C[C@@H]1CN([C@@H](C)CO)C(=O)Cc2cc(NC(=O)Cc3cn(C)c4ccccc34)ccc2O[C@@H]1CN(C)Cc1ccc(-c2ccccc2)cc1	?	/
25	C[C@H]1CN([C@@H](C)CO)C(=O)c2cc(NS(=O)(=O)c3cn(C)cn3)ccc2O[C@@H]1CN(C)S(C)(=O)=O	12	5
26	C[C@@H]1CN([C@@H](C)CO)C(=O)c2cc(C#CC(C)(C)O)cnc2O[C@H]1CN(C)C(=O)C1CCC1	12	17
27	C[C@H]1CN([C@@H](C)CO)C(=O)c2cccc(NC(=O)C3CC3)c2O[C@@H]1CN(C)S(=O)(=O)c1cn(C)cn1	13	8
28	C[C@@H]1CN([C@H](C)CO)C(=O)CCCn2nncc2CO[C@@H]1CN(C)Cc1ccc(C(=O)O)cc1	28	22
29	O=C(Nc1cc(F)ccc1F)N1CCCCN2[C@@H](CO)[C@@H](c3ccc(C4=CCCCC4)cc3)[C@@H]2C1	?	/
30	CCC(=O)N1[C@@H]2Cn3c(cccc3=O)[C@H]1[C@@H](C(=O)NCc1ccc(F)cc1)[C@@H]2CO	12	9

# The results go on:
cpd	SMILES	Vaccinia stage	Vaccinia stage Venus
31	CO[C@H]1CN(C)C(=O)c2cc(NC(=O)Nc3ccccc3)ccc2OC[C@H](C)N(C(C)=O)C[C@H]1C	17	14
32	COc1ccc(C#Cc2ccc([C@H]3[C@H](CO)N4CCCCN(C)C[C@@H]34)cc2)cc1	-27	-17
33	CC(C)NC(=O)N(C)C[C@H]1OCCCC[C@@H](C)Oc2ccc(NC(=O)NC3CCCCC3)cc2C(=O)N([C@@H](C)CO)C[C@H]1C	5	7
34	CCNC(=O)C[C@@H]1CC[C@@H]2[C@H](COC[C@H](O)CN2C(=O)c2cccnc2)O1	32	15
35	CCCNC(=O)N(C)C[C@@H]1Oc2ncc(-c3cccc(C#N)c3)cc2C(=O)N([C@H](C)CO)C[C@@H]1C	17	14
36	COCC#Cc1ccc([C@@H]2[C@H](CO)N3C(=O)CN(C(=O)C4CCC4)C[C@@H]23)cc1	1	1
37	Cc1noc(C)c1NC(=O)N(C)C[C@H]1Oc2c(NC(=O)Nc3ccc4c(c3)OCO4)cccc2C(=O)N([C@@H](C)CO)C[C@H]1C	5	11
38	COCC(=O)Nc1ccc2c(c1)OC[C@H](C)N(C(=O)c1ccccc1F)C[C@@H](C)[C@H](OC)CN(C)C2=O	20	-1
39	CC(C)NC(=O)N(C)C[C@@H]1Oc2cc(C#Cc3ccccn3)ccc2S(=O)(=O)N([C@@H](C)CO)C[C@H]1C	17&16	13&2
40	Cc1noc(C)c1S(=O)(=O)N(C)C[C@H]1OCCCC[C@H](C)Oc2ccc(NC(=O)Nc3ccc(C(F)(F)F)cc3)cc2C(=O)N([C@@H](C)CO)C[C@@H]1C	-1	-5
41	C[C@H](CO)N1C[C@H](C)[C@H](CN(C)C(=O)Nc2ccc(F)cc2)OCc2ccccc2-c2ccccc2C1=O	20	13
42	C[C@@H]1CN([C@@H](C)CO)C(=O)c2cc(NC(=O)NC3CCCCC3)ccc2O[C@@H]1CN(C)C(=O)Nc1ccc2c(c1)OCO2	21	4
43	CCNC(=O)[C@@H]1[C@@H](CO)[C@@H]2Cn3c(ccc(-c4cccc(F)c4)c3=O)[C@@H]2N1Cc1cc(F)ccc1F	7	6
44	CCCNC(=O)N(C)C[C@H]1Oc2ncc(C#Cc3ccncc3)cc2C(=O)N([C@H](C)CO)C[C@@H]1C	19	-2
45	COc1ccc(NC(=O)N(C)C[C@H]2Oc3ccc(NC(=O)NC4CCCCC4)cc3CC(=O)N([C@@H](C)CO)C[C@@H]2C)cc1	2	2

# Continuation.
cpd	SMILES	Vaccinia stage	Vaccinia stage Venus
46	C[C@H]1CN([C@@H](C)CO)S(=O)(=O)c2ccc(/C=C/c3ccccc3)cc2O[C@H]1CN(C)C(=O)C1CC1	?	/
47	CNC[C@@H]1Oc2c(NS(=O)(=O)c3ccc(F)cc3)cccc2C(=O)N([C@H](C)CO)C[C@@H]1C	10	8
48	COc1ccccc1NC(=O)N1[C@@H]2CNC[C@H]1C2c1ccc(-c2cccc(C#N)c2)cc1 (stereo partly drawn)	-3&-2	2&0
49	CCNC(=O)[C@H]1[C@H](CO)[C@H]2Cn3c(ccc(-c4ccccc4)c3=O)[C@@H]1N2Cc1ccccc1	4	-3
50	C[C@@H]1CN([C@@H](C)CO)C(=O)Cc2cc(NC(=O)Cc3cn(C)c4ccccc34)ccc2O[C@H]1CN(C)Cc1ccc2c(c1)OCO2	-22	-19
51	COc1ccccc1-c1ccc2c(c1)O[C@@H](CN(C)CC1CCOCC1)[C@@H](C)CN([C@@H](C)CO)S2(=O)=O	-23	-14
52	Cc1noc(C)c1NC(=O)Nc1ccc2c(c1)CC(=O)N([C@@H](C)CO)C[C@@H](C)[C@H](CN(C)Cc1ccc(Cl)c(Cl)c1)O2	-34	-26
53	Cc1ccc(S(=O)(=O)N(C)C[C@@H]2OCCCC[C@@H](C)Oc3ccc(NC(=O)Nc4ccc(C(F)(F)F)cc4)cc3C(=O)N([C@H](C)CO)C[C@@H]2C)cc1	-7	-8
54	C/C=C/c1ccccc1[C@H]1[C@@H](C#N)N(C(=O)c2cccnc2)[C@@H]1CO	16	12
55	C[C@@H]1CN([C@H](C)CO)C(=O)Cc2cc(NS(=O)(=O)c3cn(C)cn3)ccc2O[C@H]1CN(C)C(=O)Nc1ccc(F)cc1	0	-1
56	Cc1ccccc1-c1cnc2c(c1)C(=O)N([C@H](C)CO)C[C@H](C)[C@@H](CN(C)C(=O)c1ccncc1)O2	24	25
57	COc1ccccc1-c1cn(CC[C@@H]2CC[C@H](NC(=O)C3CCCCC3)[C@@H](CO)O2)nn1	-12	-11
58	COCC(=O)Nc1ccc2c(c1)[C@H]1C[C@H](CC(=O)NCCN3CCCCC3)O[C@@H](CO)[C@H]1O2	1	6
59	Cc1ccc(S(=O)(=O)N(C)C[C@H]2OCCCC[C@@H](C)Oc3ccc(NC(=O)Nc4cccc5ccccc45)cc3C(=O)N([C@@H](C)CO)C[C@@H]2C)cc1	9	23
60	N#C[C@H]1[C@@H](c2ccc(C#CC3CCCCC3)cc2)[C@H](CO)N1C(=O)c1cccc(F)c1	-31	-27

# Next records
cpd	SMILES	Vaccinia stage	Vaccinia stage Venus
61	C[C@@H]1CN([C@H](C)CO)C(=O)c2cccc(NS(=O)(=O)c3ccc(Cl)cc3)c2O[C@H]1CN(C)Cc1ccc(C(F)(F)F)cc1	-23	-18
62	Cc1noc(C)c1NC(=O)N(C)C[C@@H]1Oc2ccc(NS(=O)(=O)c3cccs3)cc2C(=O)N([C@H](C)CO)C[C@@H]1C	-3	-5
63	COc1ccc(-c2ccc3c(c2)O[C@@H](CN(C)CC2CCOCC2)[C@H](C)CN([C@H](C)CO)S3(=O)=O)cc1	?	/
64	C[C@@H]1CN([C@@H](C)CO)C(=O)Cc2cc(NC(=O)Nc3ccc(F)cc3)ccc2O[C@@H]1CN(C)Cc1ccncc1	-10	-3
65	COc1ccccc1-c1ccc([C@@H]2[C@H](CO)N3CCCCN(C(=O)c4ccncc4)C[C@@H]23)cc1	0	0
66	O=C(Cc1ccncc1)NCC[C@@H]1CC[C@@H](NC(=O)Nc2cccc(F)c2)[C@H](CO)O1	6	-2
67	CCC(=O)N1CC[C@@H]2[C@H]1c1cc(-c3cccc(OC)c3)ccc1N(C)[C@@H]2CO	5	1
68	C[C@@H]1CCCCO[C@@H](CN(C)C(=O)Nc2ccc(F)cc2)[C@@H](C)CN([C@H](C)CO)C(=O)c2cc(NC(=O)c3ccncc3)ccc2O1	3	2
69	COc1cccc(C#Cc2ccc3c(c2)[C@@H]2[C@@H](CCN2S(=O)(=O)c2cccc(OC)c2)[C@@H](CO)N3)c1	12	8
70	O=C(C[C@@H]1CC[C@@H]2[C@H](COC[C@H](O)CN2S(=O)(=O)c2ccc(Cl)cc2)O1)N[C@H]1CCN(Cc2ccccc2)C1	-24	-19
71	COc1cccc(NC(=O)N(C)C[C@@H]2Oc3ncc(C4=CCCCC4)cc3C(=O)N([C@@H](C)CO)C[C@@H]2C)c1	-3	-11
72	C[C@H](CO)N1C[C@H](C)[C@H](CN(C)Cc2ccc3c(c2)OCO3)Oc2ncc(-c3ccccc3)cc2C1=O	-2	1
73	COc1cccc(NC(=O)N[C@@H]2CC[C@H](CC(=O)N3CCCCC3)O[C@@H]2CO)c1	20	9

# High-throughput results (PubChem)
